Screening data from PubChem BioAssay.
Sa growth inh: S. aureus growth inhibition | S. aureus RN4220 growth, OD600, 20 h, 42 °C; stronger effect = lower value | relative growth, % (test concentration not listed) | hit rate 0.53% among 170,000 | AID 720641;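 active = growth at 42 °C up to 50% and 20 or more points under that at 30 °C, or under 10% at both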;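 note: 300 nL library stock went into each well; scaled to the means of positive and negative controls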
GIV-Gai inh: inhibitors of GIV GBA-motif binding to rat Galpha-i3; hit rate 0.42% among 210,000; P08753; Galpha-i3/FITC-GIV peptide fluorescence polarization, 90 min; stronger effect = lower value; scaled: aluminum fluoride 0%, vehicle 100%; percent of control (FP), % (concentration not given with the values);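 active = replicate mean at 85% of control or lower, very high polarization wells dropped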;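 note: wells of about 15 µL received 100 nL stock; the first replicate is given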
Target sequence (P08753 whole entry, looked up): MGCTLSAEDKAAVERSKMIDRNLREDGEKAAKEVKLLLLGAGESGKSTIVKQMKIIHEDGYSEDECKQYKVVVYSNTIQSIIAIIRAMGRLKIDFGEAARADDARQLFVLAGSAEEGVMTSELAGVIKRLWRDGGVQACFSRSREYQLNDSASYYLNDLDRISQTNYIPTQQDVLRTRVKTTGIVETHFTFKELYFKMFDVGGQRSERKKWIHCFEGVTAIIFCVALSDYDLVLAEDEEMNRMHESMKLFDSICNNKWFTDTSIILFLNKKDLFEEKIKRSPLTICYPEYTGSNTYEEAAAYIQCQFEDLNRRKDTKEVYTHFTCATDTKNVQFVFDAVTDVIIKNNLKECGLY
HCMV UL50-53 inh: disrupts HCMV UL50-UL53 complex binding | HTRF UL50-UL53 interaction, normalized percent inhibition | inhibition, % (test concentration not listed) | hit rate 0.15% among 190,000;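 active = both replicates at 50% or more, plus weaker picks with an unusually low signal ratio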;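 note: stock transfer was 100 nL into about 20 µL; 0% = negative control wells and 100% = wells with untagged competitor protein; inactives centre near -12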
Sa growth inh second temp: second read-out of Sa growth inh, no call of its own (marks repeat the call); relative growth, %; measured here: growth at 30 °C;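 optical density after 20 h as mean of two plates; 100% = untreated growth and lower means inhibition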
* = called active by the depositor; · = not tested or not shown. Compounds as they come; 0.82% or so of the library scored in one or more.

mol,Sa growth inh,Sa growth inh second temp,GIV-Gai inh,HCMV UL50-53 inh
Cn1c(SCC(=O)c2ccccc2)nc2c1c(=O)[nH]c(=O)n2C,85,87,105,-5
CCOC(=O)C1=C(CCl)OC(N)=C(C#N)C1c1cccc(OCc2ccccc2)c1 (configuration not stated),·,·,96,-10
COc1ccc(C2CC(c3ccc(C)cc3)=NN2C(=O)CCCC(=O)O)cc1 (configuration not stated),·,·,97,-40
Cc1sc2ncn(CC(=O)NCC3COc4ccccc4O3)c(=O)c2c1S(=O)(=O)N1CCOCC1 (configuration not stated),91,83,97,-28
CC(OC(=O)C1Cc2ccccc2CN1S(C)(=O)=O)C(=O)Nc1ncc(Cl)cc1Cl (configuration not stated),83,85,·,-28
Oc1ccccc1C(O)C(F)(F)F (configuration not stated),128,89,·,-9
OCc1ccc(OCCOc2cccc3cccnc23)cc1,100,98,105,-31
Cc1cc(N2CCCCC2)n2nc(-c3ccccc3)c(C)c2n1,·,·,104,-10
CCCc1cc(=O)oc2cc(OC(=O)c3cccnc3N3CCCC3)ccc12,79,83,·,-15
Cc1cc(S(=O)(=O)NC2CCCCNC2=O)c(C(F)(F)F)o1 (configuration not stated),101,74,97,-2
O=C1CSC(c2cccnc2)N1Cc1ccc(Cl)cc1Cl (configuration not stated),105,103,106,-7
C=CCN1CC(c2nc3ccccc3n2CC(O)COc2ccccc2Cl)CC1=O (configuration not stated),·,·,100,5
CCS(=O)CCSc1nc(-c2ccc(C)cc2)cc(-c2ccccc2)c1C#N (configuration not stated),95,112,101,·
O=C(NCc1cccnc1)C(=O)NCC(c1cccnc1)N1CCN(c2ccc(F)cc2)CC1 (configuration not stated),105,89,105,-7
CCOC(=O)C1=C(C)NC(=O)CC1c1cc2c(cc1Br)OCO2 (configuration not stated),96,92,99,-14
N=c1ncn(Cc2ccccc2)c2nc(SCC(=O)O)[nH]c12,87,86,99,-22
CCn1c(C(=O)N2CCCC(C(=O)NCCc3ccc(S(N)(=O)=O)cc3)C2)cc2sccc21 (configuration not stated),94,90,99,-9
COc1cccc(CNC(=O)C2CCN(c3ncccn3)CC2)c1,97,103,99,-4
COc1ccc(-c2cc3ncc(C(=O)c4cc(Cl)c(C)cc4O)cn3n2)cc1,·,·,97,-20
Cc1cc(C)cc(NC(=O)C(Cc2ccccc2)N2Cc3ccccc3C2=O)c1 (configuration not stated),108,93,107,·
CC(C)NC(=O)CCn1c(=O)c2ccccc2n2c(=S)[nH]nc12,·,·,98,-21
COc1ccc(Nc2ncnc3sc(C)c(S(=O)(=O)N4CCCCC4)c23)cc1Cl,·,·,103,-14
COc1ccc2[nH]cc(CCNC(=O)c3cnn(-c4ccccc4Cl)c3C3CCN(C(=O)OC(C)(C)C)CC3)c2c1,88,84,101,·
COC(=O)c1cc2occc2n1Cc1nc(-c2ccccc2C)oc1C,119,87,102,-35
COC(=O)C1=C(C)OC(N)=C(C#N)C1c1ccc(F)cc1 (configuration not stated),·,·,98,-11

Reformatted field by field: 2 of the compounds above
> CCOC(=O)C1=C(C)NC(=O)CC1c1cc2c(cc1Br)OCO2 (configuration not stated)
  Sa growth inh: 96
  Sa growth inh second temp: 92
  GIV-Gai inh: 99
  HCMV UL50-53 inh: -14
> CC(OC(=O)C1Cc2ccccc2CN1S(C)(=O)=O)C(=O)Nc1ncc(Cl)cc1Cl (configuration not stated)
  Sa growth inh: 83
  Sa growth inh second temp: 85
  GIV-Gai inh: ·
  HCMV UL50-53 inh: -28

(continued)
mol,Sa growth inh,Sa growth inh second temp,GIV-Gai inh,HCMV UL50-53 inh
O=c1cc(-c2ccccc2)oc2ccc(Cl)cc12,89,85,103,-25
O=C(c1cc2nc(-c3ccccc3)cc(C(F)(F)F)n2n1)N1CCCC1,87,77,100,-25
CCN(C(=O)CCS(=O)(=O)c1cc(Br)cc2c1N(C(=O)C1CC1)CC2)c1cccc(C)c1,117,99,102,-2
COc1ccc(CCNC(=O)CCNc2ccccc2C)cc1OC,92,87,·,-25
CCOC(=O)c1cc(CC)sc1NC(=O)c1ccco1,63,69,·,-1
CC(C)n1c(Cc2ccccc2)nc2ccccc21,130,81,·,-23
CCOC(=O)c1c(C)n(-c2ccccc2)c2c1cc(OC(=O)c1ccc(OCC)cc1)c1ccccc12,·,·,104,-22
CCN1CCCC1CNC(=O)C1=CCN(S(=O)(=O)c2ccccc2)CC1 (configuration not stated),95,86,109,1
Cc1nc2ccccc2n1Cc1cccc(Cl)c1,105,84,104,·
COc1ccc(-c2cnn3c(C(F)(F)F)cc(-c4ccc(C)cc4)nc23)cc1OC,·,·,102,-16
CN(CC(=O)NC1CCCc2ccccc21)C1CCCCC1 (configuration not stated),103,102,·,6
CC(NC(=O)C12CC3CC(CC(C3)C1)C2)C(=O)NN (configuration not stated),80,90,·,-41
O=C(O)C1c2ccccc2C(=O)N(Cc2ccc(F)cc2)C1c1cccs1 (configuration not stated),93,102,101,0
O=C(O)/C(=C\c1ccccc1)c1ccccc1,133,100,·,-33
O=C(Cn1cnc([N+](=O)[O-])n1)Nc1ccc(F)c(Cl)c1,·,·,104,-82
CCCCC(CC)CNC(=O)CCCCCn1c(=O)[nH]c2ccsc2c1=O (configuration not stated),94,91,105,-26
CC1CC(=O)N(CC(=O)NC(C)(C)C)c2cc(S(=O)(=O)N3CCCCC3)ccc2S1 (configuration not stated),·,·,101,-18
Oc1ccc(-c2nnc(-c3ccc(O)cc3)nn2)cc1,93,100,105,-30
COc1ccc(-n2c(=O)c3c4c(sc3n(Cc3ccccc3)c2=O)CCC4)c(OC)c1,102,91,106,8
c1ccc(OCCCn2c3ccccc3c3nc4ccccc4nc32)cc1,101,99,102,·
O=C(CN1N=C(c2ccccc2)c2cc(Cl)ccc2S1(=O)=O)NC1CCCC1,·,·,103,-8
CCc1ccc(NC(=O)CCCc2nnc3n(C(C)CC)c(=O)c4sccc4n23)cc1 (configuration not stated),104,87,102,·
COc1ccc(N(C)C(=O)CN2C(=O)C3C4C=CC(C4)C3C2=O)cc1 (configuration not stated),91,84,95,-2
Cc1cccc(-c2nc(C)c(CCNC(=O)C(=O)Nc3c(C)cc(C)cc3C)s2)c1,135,85,101,·
CCOC(=O)c1sc2ncccc2c1NC(=O)C(F)(F)F,93,91,102,-27
O=S(=O)(c1ccc(-c2ccccn2)s1)N1CCCCC1,110,96,106,13
O=C(NCCC(=O)N(c1ccccc1)c1nc2ccccc2s1)c1ccco1,136,96,·,7
CC(C)NC(=O)CCCCn1c(=O)c2ccccc2n(CC(=O)NCc2ccc(Cl)cc2)c1=O,·,·,104,-24
CC(=O)N(C(C)=O)c1c(N2CCCC2)c2ccccc2oc1=O,85,87,97,-7
Cc1ccc(Oc2ncccc2NC(=O)c2ccc3c(c2)OCCCO3)c2c1CCC2,100,93,93,-20
O=C(NCc1cccs1)c1cc(-c2ccco2)on1,93,94,102,-2
Cc1noc2ncnc(NCc3ccccc3Cl)c12,104,101,104,·
COC(=O)c1ccc(COc2ccc(C3NC(C(=O)O)CS3)cc2OC)o1 (configuration not stated),103,96,104,4
Cc1cc(C)c(C(=O)Cn2c(=S)[nH]c3ccccc32)c(C)c1,93,78,·,-8
CCSc1ncccc1C(=O)Oc1cc(C)nn1-c1ccccc1,93,80,106,-12
CCOc1ccc(NC(=O)c2c(NC(=O)c3ccco3)sc3c2CCC(C(C)(C)C)C3)cc1 (configuration not stated),102,93,108,-5
COC(=O)CCC(=O)Nc1ccc(-c2nc3ccccc3[nH]2)cc1,111,96,98,-11
Cn1ccnc1SCC(=O)N1c2ccccc2-c2c(ssc2=S)C1(C)C,102,92,103,-87
COc1cc(C(=O)Nc2ccccc2OCc2cc(=O)n3c(C)csc3n2)cc(OC)c1OC,109,87,98,-40
CCc1c(C(=O)Nc2ncn(Cc3cccc(C)c3)n2)csc1C,132,107,104,5
CN1C(C(=O)Nc2cccnc2)=CC(c2cccs2)=NS1(=O)=O,80,79,101,·
COc1ccc(-c2[nH]c(-c3cccc(OC)c3)nc2SCC(=O)NC2CCCC2)cc1,102,88,103,8
COc1cccc2cc(C(=O)O)oc12,·,·,102,4
O=C(COC(=O)c1c2c(nc3ccccc13)CCC2)c1ccccc1,85,92,·,8
CC1(C)CC(=O)C=C(NNC(=O)C2COc3ccccc3O2)C1 (configuration not stated),99,90,·,-2
O=C(OCC(=O)N1CCCC1)C1=COCCO1,85,91,·,-15
CCCC(=O)Nc1nc2n(n1)C(c1ccccc1)C=C(c1ccccc1)N2 (configuration not stated),91,80,87,-17
Clc1ccc(NCc2ccc3c(c2)OCO3)cc1,58,26,105,7
O=C(CNC(=O)c1ccccc1F)c1ccc(Cl)cc1,91,92,94,·
CC(=O)Nc1ccc(N(C(=O)Cn2nnc3ccccc32)C(C(=O)NCc2ccccc2)c2ccc(C)cc2)cc1 (configuration not stated),109,93,106,-5

Fetched one by one from the list above (4):
mol,Sa growth inh,Sa growth inh second temp,GIV-Gai inh,HCMV UL50-53 inh
Cc1cc(C)c(C(=O)Cn2c(=S)[nH]c3ccccc32)c(C)c1,93,78,·,-8
Cn1ccnc1SCC(=O)N1c2ccccc2-c2c(ssc2=S)C1(C)C,102,92,103,-87
CCOc1ccc(NC(=O)c2c(NC(=O)c3ccco3)sc3c2CCC(C(C)(C)C)C3)cc1 (configuration not stated),102,93,108,-5
COc1cc(C(=O)Nc2ccccc2OCc2cc(=O)n3c(C)csc3n2)cc(OC)c1OC,109,87,98,-40

Single records (already shown):
Record of Cc1ccc(Oc2ncccc2NC(=O)c2ccc3c(c2)OCCCO3)c2c1CCC2 : Sa growth inh: 100; Sa growth inh second temp: 93; GIV-Gai inh: 93; HCMV UL50-53 inh: -20
Record of CCSc1ncccc1C(=O)Oc1cc(C)nn1-c1ccccc1 : Sa growth inh: 93; Sa growth inh second temp: 80; GIV-Gai inh: 106; HCMV UL50-53 inh: -12
Record of CC1(C)CC(=O)C=C(NNC(=O)C2COc3ccccc3O2)C1 (configuration not stated) : Sa growth inh: 99; Sa growth inh second temp: 90; GIV-Gai inh: ·; HCMV UL50-53 inh: -2

Other results.
mol,Sa growth inh,Sa growth inh second temp,GIV-Gai inh,HCMV UL50-53 inh
COc1cccc(NC(=O)C(C)N(C)c2ccccc2)c1 (configuration not stated),106,87,·,-26
N#Cc1c(N)nc(Sc2ccc(Cl)cc2)c(C#N)c1-c1ccccc1,111,91,106,1
O=S(=O)(c1ccc(Cl)cc1)c1nc(-c2ccccc2)oc1N1CCCC1,·,·,104,-21
O=S1(=O)CC(NCc2ccccc2)C(Nc2ccccc2)C1 (configuration not stated),95,89,104,0
Clc1ccc(-c2nc3cnccn3c2Nc2ccc3c(c2)OCO3)cc1,·,·,102,-38
Oc1cccc(NCC(O)Cn2ccc3ccccc32)c1 (configuration not stated),107,79,105,-6
O=C(c1ccccc1)N1CCN(c2nc3cc(Br)ccc3n3cccc23)CC1,·,·,103,4
Cc1ccc2sc(N(Cc3cccnc3)C(=O)Cc3ccccc3)nc2c1C,124,94,108,·
CC(=O)NC(C(=O)Nc1ccc(F)c(Cl)c1)C(C)C (configuration not stated),91,92,·,6
Cc1ccc(NC(=O)Cn2nc(C)n3cccc3c2=O)c(C)c1,118,99,102,1
CN(C)c1ccc(/C=N/NC(=O)c2ccccc2)cc1,108,109,104,-51
CCOC(=O)c1ccc(NC(=O)Nc2ccc3snnc3c2)cc1,73,83,111,-4
COCCNC(=O)Cn1c(=O)n(-c2ccc(C)c(C)c2)c(=O)c2c3c(sc21)CCCCC3,97,90,106,-3
CSc1nc2ccc(NC(=O)c3cccc(C)c3)cc2s1,·,·,102,-9
O=C(NCCCN1CCCC1=O)C1CC(=O)N(Cc2ccco2)C1 (configuration not stated),101,94,·,1
COc1ccc(C2N(c3ccc(C(C)C)cc3)C(=O)N3CCCN23)cc1 (configuration not stated),·,·,100,-18
CCc1ccc(/C(C#N)=C/C=C/c2ccccc2)cc1,78,83,99,-5
CN(C(=O)c1ccc2c(Cl)c3c(nc2c1)CCC3)c1ccccc1F,101,85,107,4
CC(Sc1nncn1-c1ccccc1)C(=O)N(C)c1ccccc1 (configuration not stated),102,96,·,-12
CC1CCN(C(=O)Cn2c3c(c(=O)n4ncnc24)CCC3)CC1,·,·,98,5
COc1cccc(N2CCN(c3ncnc4onc(-c5ccc(F)cc5)c34)CC2)c1,89,91,103,·
COc1ccccc1NC(=O)C1=C(C)Nc2nc(SCc3ccccc3)nn2C1c1cccnc1 (configuration not stated),88,88,106,-4
O=C(COc1ccc2ccccc2c1)Nc1ccc(Cc2ccccn2)cc1,123,92,·,-9
CCCc1nc(SCC(=O)c2ccc3c(c2)NC(=O)CO3)[nH]c(=O)c1CC,85,81,100,-22
COC(=O)CSc1nc2sc3c(c2c(=O)n1CCc1ccccc1)CCCC3,·,·,96,7
CC12CCC(C(=O)O)(c3nc4ccc5ncccc5c4nc31)C2(C)C (configuration not stated),94,85,98,·
Cc1ccc(/C=C/C(=O)OCc2nc3ccccc3c(=O)n2CC#N)o1,90,97,·,-11
CCOc1ccc(N(C(C)C(=O)NCCSc2ccc(C)cc2)S(C)(=O)=O)cc1 (configuration not stated),102,77,102,-25
CC1CCCCN1C(=O)Cn1c(=O)n(C2CCCC2)c(=O)c2ccccc21 (configuration not stated),91,88,98,·
